# LASV entry inh: qHTS for Inhibitors of binding or entry into cells for Lassa Virus. AID 540256, 2011. Lassa virus pseudotype entry inhibition, cell reporter; control for the full effect not named in the record. actives 1.2% (n = 300,000). Potency, µM (series often up to 37.9 µM), for inactives: top-dose activity change, negative = inhibition, actives largely listed as inhibitors; active means well fitted inhibition curve with a large enough effect; inconclusive means small, poorly fitted or top-dose-only effect, or effect the other way; inactive means flat fitted curve, though single readings scatter; tested in HEK293 cells; further: on the % scale 0 is the no-effect control and ±100 the full control effect; nearly all actives have a fitted effect of over 50% in size; luciferase read-out
# MARV entry inh: qHTS for inhibitors of binding or entry into cells for Marburg Virus; Marburg virus pseudotyped entry inhibition, cell reporter; control for the full effect not named in the record; about a third of the inactives were read at about 46 µM; Potency, µM (doses to about 37.8 µM), for inactives: top-dose activity change, negative = inhibition, actives largely listed as inhibitors; actives 1.8% (n = 300,000); AID 540276, 2011; active = well fitted inhibition curve with a large enough effect; inconclusive = small, poorly fitted or top-dose-only effect, or effect the other way; inactive = flat fitted curve, though single readings scatter; tested in HEK293 cells; about a fifth of its hits are not listed in these tables; further: on the % scale 0 is the no-effect control and ±100 the full control effect; luciferase read-out
# SARS PLP yeast: qHTS of Yeast-based Assay for SARS-CoV PLP; S. cerevisiae expressing SARS-CoV PLpro, growth rescue; control for the full effect not named in the record; Potency, µM (top dose mostly 32.9 µM), inactives show at the highest dose activity, positive = growth rescue; actives 0.19% (n = 330,000); AID 485353, 2010; further: 0% is about no effect; nearly all actives have a fitted effect of over 55% in size; growth read by luminescence after 48 h
# Cruzain inh Det: qHTS Assay for Promiscuous and Specific Inhibitors of Cruzain (with detergent); purified cruzain, Z-FR-AMC fluorescence, 0.01% Triton; Potency, µM, without a hit: max response, negative = inhibition, hits mostly inhibitors; actives 0.43% (n = 200,000); Cruzipain (Trypanosoma cruzi), P25779; active means well fitted curve in the direction sought with a large enough effect; inconclusive means small, poorly fitted or top-dose-only effect, or another doubt; inactive means no such curve, though single readings can be large; an effect the other way counts as inactive or inconclusive;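 further: plate controls were neutral wells for no effect and buffer without enzyme for full effect; nearly all actives have a fitted effect of over 40% in size; top concentration of the series not given in the record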
# Target sequence (P25779 123-467 limits assumed): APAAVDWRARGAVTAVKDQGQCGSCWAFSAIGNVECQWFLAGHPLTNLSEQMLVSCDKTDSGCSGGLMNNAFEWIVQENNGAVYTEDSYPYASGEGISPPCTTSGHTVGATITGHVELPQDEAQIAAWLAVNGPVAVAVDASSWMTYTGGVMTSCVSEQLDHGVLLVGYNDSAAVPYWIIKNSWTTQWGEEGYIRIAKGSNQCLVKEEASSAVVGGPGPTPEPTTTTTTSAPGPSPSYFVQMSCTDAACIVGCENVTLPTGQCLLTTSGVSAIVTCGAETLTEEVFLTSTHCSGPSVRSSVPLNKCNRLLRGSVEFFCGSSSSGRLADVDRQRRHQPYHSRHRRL
#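 Sodium acetate buffer (100 mM, pH 5.5) containing 5 mM DTT and 0.01% Triton X-100 hosted 1.5 nM cruzain and test compound for 15 min at room temperature. Cleavage of 2 uM Z-FR-AMC was then tracked by fluorescence.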
# Cruzain noTriton: qHTS Assay for Promiscuous and Specific Inhibitors of Cruzain (without detergent). Cruzipain (Trypanosoma cruzi), P25779. purified cruzain, Z-FR-AMC fluorescence, no detergent. Potency, µM, for inactives: max response, negative = inhibition, hits mostly inhibitors. actives 2.3% (n = 200,000). AID 1476, 2009; active means well fitted curve in the direction sought with a large enough effect; inconclusive means small, poorly fitted or top-dose-only effect, or another doubt; inactive means no such curve, though single readings can be large; an effect the other way counts as inactive or inconclusive;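 further: plate controls were enzyme without inhibitor for no effect and buffer without enzyme for full effect; nearly all actives have a fitted effect of over 40% in size; top concentration of the series not given in the record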
#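 Purified cruzain at 1.5 nM, pre-incubated 15 min with compound at room temperature in 100 mM sodium acetate pH 5.5, 5 mM DTT, 0.00005% Triton X-100. Reaction started with 2 uM Z-FR-AMC; AMC fluorescence increase over 60 s gives rate.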
# 2A StopGo: High Throughput Screening for Foot and Mouth Disease Virus Antivirals; actives 1.2% (n = 410,000); human cells with a luciferase reporter of 2A StopGo recoding; control for the full effect not named in the record; AID 1159524, 2015; Potency, µM (series often up to 57.9 µM), without a hit: top-dose signal change, negative = less light; active = well fitted falling curve with a large enough effect; inconclusive = small, poorly fitted or top-dose-only effect; inactive = no such curve, though single readings can be large or run the other way; tested in HEK293T cells; further: on the % scale 0 is the no-effect control and ±100 the full control effect; nearly all actives have a fitted effect of over 45% in size; luciferase light after 4 h
# RE007 growth inh: qHTS Assay for Inhibitors of the HIV-1 protein Vpr; S. pombe RE007 Vpr strain, BacTiter-Glo ATP luminescence, 24 h; control for the full effect not named in the record; Potency, µM (top dose mostly 92.2 µM), inactives show at the top dose activity change, negative = less growth; actives 0.21% (n = 360,000); active = well fitted falling curve with a large enough effect; inconclusive = small, poorly fitted or top-dose-only effect; inactive = no such curve, though single readings can be large or run the other way;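 further: on the % scale 0 is the no-effect control and ±100 the full control effect; nearly all actives have a fitted effect of over 50% in size; the assay follows cell death caused by Vpr and the record does not say whether a fall means rescue or toxicity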
#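 Fission yeast strain RE007, carrying one chromosomally integrated HIV-1 vpr copy, was seeded at OD 0.01 in PMG+AL medium with 23 nL pinned compound. After 24 h at 30 °C and 99% humidity, viability was read by BacTiter-Glo luminescence.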
# NS1 inh: qHTS Assay for Inhibitors of Influenza NS1 Protein Function | S. cerevisiae slowed by influenza A NS1, growth recovery by OD600 | Potency, µM (top dose mostly 46.1 µM), for inactives: top-dose activity, positive = more growth | actives 0.4% (n = 270,000) | AID 2326, 2010; further: actives are rising curves; nearly all actives have a fitted effect of over 50% in size
#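 A cell-based growth assay was used: compounds that relieve NS1-induced slow growth of budding yeast raise OD600. Assay medium was yeast nitrogen base with ammonium sulphate and -URA supplement, pH 6.0, with 2% galactose.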
# The depositor's hits bear a star; ? = inconclusive; · = no result given; & = joins results of further samples; [ ] = dose if it differs, or a comment. Unless noted, the call rests on the fitted dose curve; in most records, active means well fitted rising curve with a large enough effect; inconclusive means small, poorly fitted or top-dose-only effect; inactive means no such curve, though single readings can be large or run the other way. Potency means the concentration at half of the fitted maximal effect.
SMILES,LASV entry inh,MARV entry inh,SARS PLP yeast,Cruzain inh Det,Cruzain noTriton,2A StopGo,RE007 growth inh,NS1 inh
Cc1ccc(S(=O)(=O)N(C)CC(=O)NCC(=O)Nc2ccc(F)c(F)c2F)cc1,12%,2%,-27%,·,·,-18%,-10%,·
N#CC1=C(N)Oc2cc(O)ccc2C1c1ccc(Br)s1 (centres undefined),2%,3%,1%,·,·,-1%,12%,19%
O=C(CSc1nnc(NC2CCCCC2)s1)Nc1ccc2c(c1)C(=O)c1ccccc1C2=O,·,·,1%,·,·,22%,-4%,-1%
COc1ccc(CNC(=O)CSc2ncc3c(n2)-c2ccc(Cl)cc2N(Cc2ccccc2)S3(=O)=O)cc1,-4%[46.1 µM],·,·,-1.3%,-22%,-21%,·,·
CC(NC(=O)c1cc2cc(Br)ccc2oc1=N)c1ccccc1 (centres undefined),-14%,26%,0%,·,·,?,-5%,5%
COc1ccc(OC)c(S(=O)(=O)N2CCCCCC2)c1,17%,0%,-1%,-4.9%,-13%,18%,4%,-6%
Cc1ccc(-n2ncc(C(=O)NCCN3CCN(C)CC3)c2C2CCN(C(=O)OC(C)(C)C)CC2)cc1C,14%[46.1 µM],·,·,-2.4%,0%,6%,·,·
COc1ccccc1/C=C/c1nc(C#N)c(N(C)C)o1,?,?,10%,14µM*,?,53%&27%[activator],-2%,0%
CN(Cc1nc(C(c2ccccc2)c2ccccc2)no1)CC1COCCO1 (centres undefined),?,5%[46.1 µM],0%,·,·,3%,23%,2%
CCOc1ccc(NC(=O)CCNS(=O)(=O)c2cccc3nsnc23)cc1,-21%,?,-4%,-3.1%,3%,29%&9%,-13%,6%
Cc1ccc(S(=O)(=O)N2CCCC2C(=O)NC2=NCCS2)cc1 (centres undefined),0%,-3%,-4%,3.2%,3%,-9%,2%,0%
COc1ccc(CNC(=O)c2nc(SC(C)C)ncc2Cl)cc1,-22%[46.1 µM],8%[46.1 µM],·,-11%,-16%,-9%,·,·
COc1cc(/C=N/n2c(C3CCCCC3)n[nH]c2=S)ccc1O,·,·,-2%,·,·,-22%,16%,1%
Cc1ccc(C(=O)NCC(=O)NC2CCCCCC2)cc1,25%,8%,-2%,·,·,55%[activator],-9%,1%
CN(CC1COc2ccccc2O1)C(=O)CSc1ncccn1 (centres undefined),27%[46.1 µM],2%[46.1 µM],8%,·,·,27%,27%,·
Cc1nn(-c2ccccc2)c(C)c1C(=O)NCc1cccs1,1%,13%,13%,-1.3%,-23%,6%,·,5%
COc1ccc(Cl)cc1NC(=O)C[n+]1cccc(C)c1,·,·,0%,·,·,-16%,-23%,?
CCOC(=O)CCC(NC(=O)c1ccccc1C(=O)NC(CCC(=O)OCC)C(=O)OCC)C(=O)OCC (centres undefined),19%[46.1 µM],?,-3%,·,·,18%,-7%,·
O=C(NCCCSc1ccccc1)c1ccc(=O)[nH]c1,-3%[46.1 µM],9%[46.1 µM],0%,·,·,-14%,-6%,7%
Cc1ccc(-c2cc(C(F)(F)F)c(C#N)c(SCC(=O)O)n2)cc1,-14%,?,1%,-9.5%,29%,-9%&-7%,8%,1%
O=C(Nc1nc2c(ccc3ccccc32)s1)c1ccco1,?,15µM*,-21%,-12%,-20%,0%,28%,-64%
O=C(Nc1ccn(Cc2ccccc2F)n1)c1ccc(COc2cc(Cl)ccc2Cl)o1,?,?,-2%,-6.1%,-8%,?,12%,22%
Cc1ccc([N+](=O)[O-])cc1NC(=O)CSc1nncn1-c1ccccn1,-21%[46.1 µM],6%[46.1 µM],-1%,·,·,9%,6%,-11%
COC(=O)C1C(=O)C=C(Nc2ccc(F)cc2F)CC1c1ccccc1 (centres undefined),2%,19%,-3%,-2.9%,-7%,27%,-9%,5%
COc1cc(OC)cc(C(=O)Nc2cc(-c3nc4cc(Cl)ccc4o3)ccc2Cl)c1,16%[46.1 µM],30%[46.1 µM],·,2.3%,2%,68%[activator],·,·
CN(Cc1ccc(Cl)cc1Cl)C(=O)c1cccc(S(=O)(=O)NCc2ccccc2)c1,-8%,-54%,·,·,·,15%,2%,·
COc1ccccc1N1CCN(/N=C(\C)c2ccc(O)cc2)CC1,·,·,1%,·,·,42%[activator],-8%,14%
COc1ccc(-c2nnc3ccc(SCC(=O)NCC4CCCO4)nn23)cc1 (centres undefined),5%,1%,4%,2.4%,-10%,5%,5%,-5%
Cc1ccc(N(Cc2ccccc2)C(=O)Cc2ccc(S(=O)(=O)N3CCOCC3)s2)cc1,?,-6%,1%,·,·,31%[activator],-1%,·
Cc1ccc(OCCOCCOc2cccc3cccnc23)c(Br)c1,9%,?,2%,-8.1%,?,-13%,-17%,-80%
CC1(OC(=O)C2CCCC2)C(=O)C=C2C=C(c3ccsc3)N(CCCCO)C=C2C1=O (centres undefined),·,?,-1%,·,·,-11%,-6%,4%
COc1cc(C2C(C(=O)Nc3ccc(F)cc3)=C(C)Nc3nc(CCCO)nn32)cc(OC)c1OC (centres undefined),·,-2%,-2%,0.1%,-3%,-24%,1%,-3%
COc1ccc2ncc(S(=O)(=O)c3ccccc3)c(N3CCN(c4ccccc4)CC3)c2c1,?,?,-3%,-2.3%,?,?,15%,13%
COc1cc(C(=O)N2CCc3c([nH]c4ccccc34)C2c2ccc(F)cc2)cc(OC)c1OC (centres undefined),8.9µM*,·,·,0.9%,-4%,-14%,·,·
Cc1nc2cccnc2n1-c1cccc(C(=O)N2CCN(c3cccc(Cl)c3)CC2)c1,?,·,·,-6.2%,?,25µM*,·,·
Cc1nnc(Sc2cc(NCCO)c([N+](=O)[O-])c3nonc23)s1,?,?,4%,·,·,?,7%,·
CCOC(=O)N1CCN(CC(=O)c2ccc3c(c2)CCN3)CC1,7%,-6%,-7%,-5.2%,-8%,0%,-10%,0%
COc1ccccc1NC(=O)C1=C(C)Nc2c(C(=O)Nc3cccc(C)c3)cnn2C1c1ccccc1C (centres undefined),-23%[46.1 µM],·,·,-5.0%,?,-20%,·,·
Brc1cccc(OCCN2CCc3ccccc3C2)c1,·,·,2%,·,·,-30%,-1%,-16%
COc1ccc(NC(=O)C(=O)Nc2ccc3nc4n(c(=O)c3c2)CCCCC4)c(OC)c1,0%[46.1 µM],-3%[46.1 µM],·,-0.6%,-5%,3%,·,·
CCOc1ccc(OCc2ccc(C(=O)NC(C)C)o2)cc1,·,·,-1%,·,·,-3%,2%,-11%
O=C1NC(Cc2ccccc2)C(=O)N1Cc1ccccc1 (centres undefined),11%[46.1 µM],-1%[46.1 µM],·,·,·,-5%,11%,·
CCOc1ccc(CCNC(=O)COC(=O)CCS(=O)(=O)c2ccc(C)cc2)cc1OCC,-2%,20%,?,·,·,-10%,-20%,·
c1ccc2c(c1)CNc1ccccc1O2,?,-8%,6%,5.0%,9%,-17%,-14%,5%
Nc1ccc(C(=O)N2CCN(S(=O)(=O)c3ccc(Cl)s3)CC2)cc1[N+](=O)[O-],-20%,-13%,0%,·,·,11%,-10%,·
Cc1cccc(NC(=O)CCS(=O)(=O)c2ccc3c(c2)n(C)c(=O)c(=O)n3C)c1C,29%[46.1 µM],-7%[46.1 µM],·,1.1%,-2%,-7%,·,·
O=C(COC(=O)c1ccc(Cl)nc1)NCc1ccc(F)cc1,5%,1%,1%,·,·,13%,8%,·
COc1cc(C(=S)N2CCOCC2)ccc1OC(=O)c1ccccc1C,·,·,-4%,·,·,0%,4%,-19%
CCn1c(SCC(=O)N2CCCC2)nc2c(c1=O)SC(C)C2 (centres undefined),·,·,1%,2.2%,-11%,-14%,-6%,-24%
COC(=O)c1noc(C)c1-c1ccnn1C(=O)c1ccc(C)cc1,14%,3%[46.1 µM],-1%,·,·,6%,48%,-6%

# (listing goes on)
SMILES,LASV entry inh,MARV entry inh,SARS PLP yeast,Cruzain inh Det,Cruzain noTriton,2A StopGo,RE007 growth inh,NS1 inh
C#CC1(NC(=O)NCCCC)CCCCC1,12%[46.1 µM],15%[46.1 µM],2%,·,·,12%,-3%,5%
COc1ccc(S(=O)(=O)c2c(SC)nn(CC(=O)Nc3ccc(C)c(Cl)c3)c2N)cc1,?,·,·,-2.0%,-3%,0%,·,·
Cc1occc1C(=O)NNC(=O)CN1C(=O)NC(C)(c2ccccc2)C1=O (centres undefined),16%,19%,1%,·,·,-24%,?,·
NC(=NC(=O)c1ccc(OCC(F)(F)F)nc1)c1ccc(Cl)cc1,3%[46.1 µM],?,-14%,·,·,4%,-27%,4%
COc1cccc(/C=C/C(=O)NCCc2ccc(OC)c(OC)c2)c1,20%,16%,5%,-4.5%,2%,-7%,1%,-7%
O=C(N/N=C/c1cccc(Cl)c1)C1CCCC1,-8%[46.1 µM],13%[46.1 µM],?,·,·,24%,-5%,-17%
COc1ccc(-c2nn(-c3ccccc3)cc2C(=O)Nc2nccs2)cc1OC,?,?,0%,-6.2%,18%,-21%,-11%,4%
CS(=O)(=O)N(CC(=O)NCc1ccco1)c1ccc(Cl)c(C(F)(F)F)c1,0%,?,3%,-6.6%,11%,-9%,1%,7%
CCCCOn1c(C)c(C(=O)OCC)c2c3no[n+]([O-])c3ccc21,0%,-12%,5%,0.9%,2%,·,4%,-5%
COC(=O)c1ccc(C(=O)NC(=S)Nc2nc3c(s2)CC(C)CC3)cc1 (centres undefined),20%,?,6%,-3.0%,6%,21%,-20%,-1%
O=C(NC(=S)Nc1ccc(S(=O)(=O)N2CCOCC2)cc1)c1ccccc1[N+](=O)[O-],-9%,7%[46.1 µM],0%,·,·,-8%,11%,0%
COc1ccc(OCCCC(=O)NCc2ccco2)cc1,3%,1%,0%,1.4%,-6%,·,7%,8%
